Compound activity deposited in PubChem BioAssay by several laboratories.
YopH inh – YopH tyrosine phosphatase inhibitors, primary screen, biochemical, fluorescence Ex485/Em525 | 140,000 compounds, 0.16% hits | YopH tyrosine phosphatase [Yersinia enterocolitica] | AID 898, 2007 | inhibition, %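 (about 10 µM by stock and volumes)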;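 active = inhibition of 50% or more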;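 also: controls were vehicle for no effect and minimum signal wells for full effect; inactives centre near -20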
Mtb bLac sens – beta-lactam sensitization of Mtb H37Rv, H37Rv; AID 434955, 2010; 330,000 compounds, 0.27% hits; inhibition, % at 25 µM; M. tuberculosis H37Rv growth with meropenem, percent inhibition; hits of this screen are not shown here;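 active = about 74% or more and at least 40 points above the plate without the antibiotic, then above 30% in a dose series; inconclusive = first-round hits that could not be retested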;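 also: growth measured after seven days incubation then overnight dye step; 0% = bacteria only wells and 100% = bacteria with antibiotic; twin plates without the antibiotic show which effects depend on it; some results filed as inactive read as strong as hits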
RecA intein inh – Mtb RecA intein splicing inhibitors, primary screen, biochemical, fluorescence, HTS; 290,000 compounds, 0.75% hits; AID 2221, 2009; cell-free RecA intein splicing; Protein RecA (Mycobacterium tuberculosis (strain ATCC 25618 / H37Rv)), P9WHJ3; inhibition, %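 (about 9 µM by stock and volumes)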; in the data active = inhibition above about 30%; inconclusive = no clear call, values can overlap the other calls;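 also: 0% = vehicle wells and 100% = reference inhibitor control wells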
Target sequence (P9WHJ3 whole entry, looked up): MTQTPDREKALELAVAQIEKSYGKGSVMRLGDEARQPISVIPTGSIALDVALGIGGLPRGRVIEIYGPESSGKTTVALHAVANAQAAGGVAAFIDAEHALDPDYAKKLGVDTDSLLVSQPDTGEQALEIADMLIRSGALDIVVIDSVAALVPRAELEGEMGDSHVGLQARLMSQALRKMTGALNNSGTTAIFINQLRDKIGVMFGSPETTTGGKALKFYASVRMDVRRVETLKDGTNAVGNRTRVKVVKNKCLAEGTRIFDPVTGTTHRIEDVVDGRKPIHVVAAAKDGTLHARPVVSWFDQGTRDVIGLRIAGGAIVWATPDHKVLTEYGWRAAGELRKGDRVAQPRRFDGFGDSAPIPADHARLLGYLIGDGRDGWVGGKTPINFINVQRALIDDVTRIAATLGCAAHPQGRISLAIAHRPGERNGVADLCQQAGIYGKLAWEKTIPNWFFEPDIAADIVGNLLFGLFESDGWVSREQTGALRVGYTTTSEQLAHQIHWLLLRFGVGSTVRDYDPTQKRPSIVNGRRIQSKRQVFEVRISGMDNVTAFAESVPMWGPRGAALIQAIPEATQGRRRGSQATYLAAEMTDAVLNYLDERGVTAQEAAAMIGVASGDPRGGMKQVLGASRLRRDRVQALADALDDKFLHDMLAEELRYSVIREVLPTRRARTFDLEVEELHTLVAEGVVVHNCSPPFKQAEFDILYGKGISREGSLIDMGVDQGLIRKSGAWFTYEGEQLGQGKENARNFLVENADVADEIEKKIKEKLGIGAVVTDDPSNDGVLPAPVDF
Mtb H37Rv – M. tuberculosis H37Rv growth inhibitors, H37Rv strain (AID 1626); M. tuberculosis H37Rv growth inhibition; higher % means a stronger effect; inhibition, % at 10 µM, or IC50 in µM where a hit was titrated; 220,000 compounds, 0.95% hits;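 active = confirmed in a dose series; inconclusive = inhibition above 80% but not taken into the dose series; inactive = below 80% or under 30% at every dose of the series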;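 also: bacteria incubated seven days before Alamar blue readout; 0% = bacteria only wells and 100% = bacteria with antibiotic wells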
Arbovirus anti – antivirals against arbovirus infection, primary screen, cell-based, full library, 10K replicate subset. 200,000 compounds, 0.37% hits. arbovirus infection cell-based antiviral screen. inhibition, % at 10 µM;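 active = inhibition from about 30%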;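 also: bluetongue infection of BSR cells; cell survival read as ATP light after 72 h; 0% = infected wells without compound and 100% = uninfected wells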
Arbovirus anti repeat – also measured in Arbovirus anti; calls as there; inhibition, %; measured here: 10K subset replicate screen; many hits read low in the repeat;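 first of two repeat runs on a subset; 0% = infected and 100% = uninfected wells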
Starred values were filed as active, the others as inactive; ? = inconclusive; nt = not tested or not shown.

SMILES	YopH inh	Mtb bLac sens	RecA intein inh	Mtb H37Rv	Arbovirus anti	others
Cc1cccc(C)c1NC(=O)CN(C)C(=O)c1cccc(S(=O)(=O)N2CCN(c3ccccc3)CC2)c1	nt	1	-1.3	nt	nt
Cc1cc2[nH]c(=O)c(=O)[nH]c2cc1S(=O)(=O)Nc1cccc(Cl)c1	nt	-10	5.8	nt	nt
COc1ccc(-n2nc(C(=O)NCC(=O)NCc3cccc(F)c3)c3ccccc3c2=O)cc1Cl	nt	5	1.7	nt	nt
COc1ccc(N(CC(=O)NCc2ccco2)S(=O)(=O)c2ccccc2)cc1	nt	-11	-0.3	-1%	-8
CCCn1c(SCC(=O)Nc2cccc(C)n2)nc2c1c(=O)n(C)c(=O)n2C	nt	0	-0.9	3%	3
CCOc1ccc(NC(=O)CN(C2CCCCC2)S(C)(=O)=O)cc1	-17	11	2.8	2%	-10
CN1CCN(S(=O)(=O)c2cccc(C(=O)N(Cc3nnc(-c4ccc(Cl)cc4)o3)C3CC3)c2)CC1	nt	5	0.1	nt	nt
Cn1nc(-c2ccccc2)c(-c2nc(-c3ccccc3Cl)no2)c1Cl	-2	3	0.1	2%	4
CCCn1nnnc1NC(=O)COc1ccc(Br)cc1	nt	0	-1.3	3%	-2
Cc1ccccc1Cn1cc(S(=O)(=O)CC(=O)N2CCCCC2)c2ccccc21	-16	8	-0.3	-5%	-10
COC(=O)CNC(=O)c1cn(CCC#N)nc1-c1ccc(F)cc1	nt	20	1.2	-1%	8
Cc1cccn2c(=O)c3cc(C(=O)NC4CCCC4)n(C)c3nc12	nt	-2	-75	nt	nt
O=C(COC(=O)c1cnccn1)NCc1ccccc1	-101	6	2.3	3%	7
Nc1cc(Cl)nnc1Cl	nt	nt	2.7	-7%	nt
COc1ccc(-c2nn(-c3ccccc3)cc2C(=O)N/N=C/c2ccc([N+](=O)[O-])o2)cc1	nt	2	0.3	7%	-12
O=C(c1cccc(S(=O)(=O)N2CCOCC2)c1)N(Cc1nnc(-c2ccccc2Cl)o1)C1CC1	nt	-15	-1.4	nt	nt
CC(C)CC1NC(=S)N(Cc2ccccc2)C1=O (stereo not given)	-15	0	0.0	3%	14
Cc1cccc(N2CCN(Cc3nc(-c4cccc(Cl)c4)oc3C)CC2)n1	nt	31	6.7	-5%	14
CC1(C)CC(=O)CC(=Nc2ccc(C(=O)O)cc2)C1	-35	-8	-1.5	-9%	4
CCOC(=O)N1CCN(C(=O)c2cn(CC)c3ccc(S(=O)(=O)N4CCCC4)cc3c2=O)CC1	1	4	0.7	-6%	15
CC12CCC(C(=O)NCc3ccc(Cl)cc3)(OC1=O)C2(C)C (stereo not given)	-14	0	1.4	6%	-1
Cc1ccc2oc(=O)c3cnn(CC(=O)N4CCCCCC4)c3c2c1	-52	-7	-0.2	-1%	1	Arbovirus anti repeat=-2
O=S(=O)(c1cnc[nH]1)N1CCN(c2ccc(F)cc2)CC1	nt	1	-0.1	-2%	nt
Cc1ccc(C(=O)NCCC2=CCCCC2)cc1S(=O)(=O)N1CCCCC1	nt	-9	-3.7	nt	nt
CCn1cc(C2=NCCO2)c2ccccc21	-43	0	1.1	6%	13

Quoted at random: two records from the list
SMILES	YopH inh	Mtb bLac sens	RecA intein inh	Mtb H37Rv	Arbovirus anti	others
CC(C)CC1NC(=S)N(Cc2ccccc2)C1=O (stereo not given)	-15	0	0.0	3%	14
CCCn1nnnc1NC(=O)COc1ccc(Br)cc1	nt	0	-1.3	3%	-2

Other entries follow.
SMILES	YopH inh	Mtb bLac sens	RecA intein inh	Mtb H37Rv	Arbovirus anti	others
Cc1cc(C)c(S(=O)(=O)N2CCOC2CNC(=O)C(=O)NCc2cccnc2)c(C)c1 (stereo not given)	-33	2	-0.4	6%	3
COCCN(C(=O)COC(=O)C1(C)CC1(Cl)Cl)c1c(N)n(Cc2ccccc2)c(=O)[nH]c1=O (stereo not given)	nt	-6	3.2	nt	nt
CSCCNC(=O)c1cccc(Cl)c1	nt	2	nt	4%	-2
CC(=O)/C(=N/Nc1cccc(Cl)c1)N1CCOCC1	-28	93	-0.9	?	-46
CCN(CC)S(=O)(=O)c1ccc(N2CCOCC2)c(NC(=O)CCOc2ccccc2)c1	nt	-9	0.0	5%	nt
COc1ccccc1N(CC(O)CN1CCCC1)S(=O)(=O)c1ccccc1 (stereo not given)	nt	-12	1.3	nt	nt
CSc1nc(C)c2c(n1)N(c1ccc(C(F)(F)F)cc1)CC2	-28	2	-1.1	-4%	6
COC(=O)c1ccc(Cn2nnc3ccccc3c2=O)o1	-26	10	0.6	-4%	-1
Oc1c(Cl)cc(Cl)cc1C=Nc1ccc(N2CCOCC2)cc1	nt	0	7.0	nt	nt
COc1ccc(C(CC(=O)c2ccc(C)cc2)Nc2ccc([N+](=O)[O-])cc2)cc1 (stereo not given)	-29	21	-2.1	13%	9
CCn1c(=O)c2sccc2n2c(CCCC(=O)N3CCN(c4ccccn4)CC3)nnc12	nt	2	-1.7	nt	nt
COc1ccc(/C(N)=N/OC(=O)C2CCC(=O)N2S(=O)(=O)c2ccc(C)cc2)cc1OC (stereo not given)	-32	-3	19	-2%	-3
COc1cc(NC(=O)CN2C(=O)NC(C)(CC(C)C)C2=O)cc(OC)c1 (stereo not given)	-29	-4	nt	5%	5
CCCCOC(=O)c1cccc(NC(=O)CC)c1	-14	28	1.2	3%	-8
COc1cccc(-c2cc(C(F)(F)F)nc(N3CCN(c4ccccc4)CC3)n2)c1	-24	?	1.1	-7%	7
Cc1cccc(N(NC(=O)C(C)(C)O)C(=O)c2ccccc2)c1	1	-7	0.7	-6%	0
O=C(CCN1C(=O)c2ccccc2C1=O)Nc1cc(F)ccc1F	-7	-3	-1.1	-7%	11
O=C(CSc1nnc(-c2ccco2)n1CC1CCCO1)N1CCCCC1 (stereo not given)	9	-1	1.2	-3%	-1
Cc1c(NC(=O)c2noc3c2CCc2ccccc2-3)c(=O)n(-c2ccccc2)n1C	-28	nt	0.1	39%	-1	Arbovirus anti repeat=2
O=C1Nc2ccccc2C12Nc1ccccc1S2 (stereo not given)	-30	-6	0.4	0%	-9
Cc1cc(NC(=O)COC(=O)C(C)Oc2ccc(Cl)cc2Cl)no1 (stereo not given)	nt	-4	1.0	nt	nt
CCC(C)c1ccc(NC(=O)c2ccco2)cc1 (stereo not given)	nt	39	5.4	nt	nt
O=[N+]([O-])[N-][n+]1cnn(Cc2ccccc2)c1	nt	4	nt	0%	0
CC1(C(=O)OCC(=O)Nc2cccc(S(=O)(=O)NC3=NCCCCC3)c2)CC1(Cl)Cl (stereo not given)	nt	1	3.2	-4%	3
Cc1ccc(NN2C(=O)C=C(c3ccccc3)C2=O)cc1	nt	nt	1.2	?	-25

More records
SMILES	YopH inh	Mtb bLac sens	RecA intein inh	Mtb H37Rv	Arbovirus anti	others
COCCNC(=O)C(OC(=O)c1ccco1)c1ccccc1Cl (stereo not given)	nt	-5	-0.5	nt	nt
CSC1=NC(=O)/C(=C/c2ccc(SC)cc2)S1	nt	4	2.7	3%	6
COc1ccc2oc(C(=O)NC3CCCCC3)c(C)c2c1	nt	0	-4.8	nt	nt
O=C(NCC1CCCO1)c1ccc2nc(N3CCCCC3)sc2c1 (stereo not given)	-18	-6	-1.5	2%	0	Arbovirus anti repeat=3
Cc1c(N)cc(C(=O)N2CCOCC2)cc1[N+](=O)[O-]	-6	-2	-0.9	-11%	3
CCOc1cc(/C=C2\C(=O)N(Cc3ccco3)C(C)=C2C(=O)OC)ccc1O	nt	-3	-0.6	5%	8
COc1ccc(-c2nn(CCC(=O)O)cc2/C=N/NC(N)=S)cc1	nt	-11	-1.7	-8%	nt
COc1ccc(NP(=O)(Oc2ccc(Cl)cc2)Oc2ccc(Cl)cc2)cc1OC	-23	12	16	-1%	-9
CCOc1ccc(C2C(C#N)=C(N)N(N(C)C)C3=C2C(=O)CC(C)(C)C3)cc1 (stereo not given)	nt	1	-7.4	nt	nt
CCCOc1ccc(N2CC(C(=O)Nc3ccccc3F)CC2=O)cc1 (stereo not given)	-51	98	1.4	-8%	3
Cc1cccc(Nc2nc(-c3cccs3)cs2)n1	-13	79	18	16%	8
Cc1ccccc1OCCC(=O)OCC(=O)NCCc1ccccc1	nt	-2	0.5	nt	nt
Cc1cccc2cc(CN(Cc3cccnc3)C(=O)c3cccs3)c3nnnn3c12	nt	5	-0.9	-9%	-4
COc1cc2c(cc1OC)CN(c1nc(CN3CCCC3)nc3sc(C)c(C)c13)CC2	nt	0	-0.6	2%	-14
O=C(CN1C(=O)C2CCCCC2C1=O)Nc1nc(-c2ccccn2)cs1 (stereo not given)	-5	80	-0.2	?	-32
C=CCn1cc(C(=O)N2CCN(c3ccccc3)CC2)c(=O)c2cc(S(=O)(=O)N3CCCC3)ccc21	nt	-1	-2.0	nt	nt
CN1Cc2c(N3CCOCC3)nc3sc(C#N)c(N)c3c2CC1(C)C	nt	5	-8.0	-5%	nt
Cc1nn(CC(=O)Nc2ccc(C(=O)N(C)C)cc2)c(=O)c2ccccc12	-21	-5	-0.6	-7%	8
Cc1ccc(C)c(S(=O)(=O)N2CCCOC2CNC(=O)C(=O)NCc2ccco2)c1 (stereo not given)	-16	0	-1.4	-1%	0
COc1ccc(-n2nnnc2SCC(=O)c2ccc(O)c(O)c2)cc1	-8	2	-1.3	-5%	-14
COc1ccc2c(=O)c(-c3ccccc3)c(C)oc2c1	-32	4	1.8	0%	-2
O=C(CSc1nnc(CNC(=O)C23CC4CC(CC(C4)C2)C3)n1-c1ccc(F)cc1)Nc1ccc(F)cc1	-16	6	-0.9	nt	-6
CCc1nnc2c3cnn(-c4ccccc4)c3ncn12	-19	-1	-1.6	5%	2
CCOC(=O)N1CCN(C(=O)c2cn(C)c(=O)c3c2c2ccccc2n3C)CC1	-34	-6	-0.8	-2%	-2
CCCCOC(=O)Nc1sc2nc(C)cc(C)c2c1-n1cccc1	-34	-2	-2.6	3%	-3

Additional results
SMILES	YopH inh	Mtb bLac sens	RecA intein inh	Mtb H37Rv	Arbovirus anti	others
COc1cc(=O)n(C)c2c(OCC3OC(C)(C)OC3(C)C)cccc12 (stereo not given)	nt	-6	-0.4	-3%	-3	Arbovirus anti repeat=1
Cc1ccc2sc(-c3ccc(NC(=O)/C=C\C(=O)O)cc3)nc2c1	nt	nt	14	7%	8
O=C(NCc1ccc(Cl)cc1)C1CCN(S(=O)(=O)c2cccnc2)CC1	nt	-5	-0.6	nt	nt
CC(C)CNC(=O)C(=O)NNC(=O)c1ccco1	nt	-1	-1.6	1%	-2
CCCCn1c(O)c(C(CC)=NC(C)c2ccccc2)c(=O)[nH]c1=O (stereo not given)	-65	?	2.9	3%	1
O=C(Cc1ccccc1)Nc1scc(-c2ccccc2)c1C(=O)N1CCOCC1	-15	4	-2.8	4%	-4
O=C(Nc1ccc(-c2nc3cc(Cl)ccc3c(=O)o2)cc1)c1ccco1	-9	94	-13	10%	25
CN1CC(=O)N(CC(=O)Nc2ccc(Cl)c(C(F)(F)F)c2)C1=O	-44	1	1.4	-10%	1
Cc1ccc(-c2nnc(Nc3ccc(C(=O)N(C)C)cc3)c3ccccc23)cc1S(=O)(=O)NC(C)(C)CO	nt	-1	2.7	-1%	nt
O=C(COc1ccc(Cl)cc1Cl)NN=C1c2ccccc2-c2ccccc21	-32	4	0.5	10%	-30
COc1ccc(C(=O)N2CCN(c3c(C)cccc3C)CC2)cc1OC	-19	-3	2.5	0%	10	Arbovirus anti repeat=3
CCc1nnc(NS(=O)(=O)c2ccc(NC(=O)c3ccccc3)cc2)s1	nt	-2	-1.9	8%	nt
Cc1cc(NC(=O)c2ccccc2)nc2c1c(=O)oc1ccccc12	nt	1	-0.6	-2%	-8
Cc1ccc(C(C(=O)NCc2ccc(F)cc2)N(C(=O)c2csnn2)C2CC2)o1 (stereo not given)	-35	1	nt	-2%	5
Cc1ccc(O)c(-c2[nH]ncc2C(=O)c2ccc(Br)cc2)c1	nt	-3	12	nt	nt
Cc1cc(C)c2c(=O)[nH]c(=O)n(Cc3ccccc3)c2n1	-8	0	2.6	0%	-9

Molecules listed so far with a COOH group:
SMILES	YopH inh	Mtb bLac sens	RecA intein inh	Mtb H37Rv	Arbovirus anti	others
CC1(C)CC(=O)CC(=Nc2ccc(C(=O)O)cc2)C1	-35	-8	-1.5	-9%	4
COc1ccc(-c2nn(CCC(=O)O)cc2/C=N/NC(N)=S)cc1	nt	-11	-1.7	-8%	nt
Cc1ccc2sc(-c3ccc(NC(=O)/C=C\C(=O)O)cc3)nc2c1	nt	nt	14	7%	8

These rows are one share of the data; count on the stated rates, not on these rows.
